From PubChem
total CFTR – total CFTR protein upregulators, primary screen, cell-based, HeLa F508del-CFTR, immunofluorescence, viability (AID 1224863) | HeLa F508del-CFTR, immunofluorescence total CFTR, 24 h; by the record results were divided by relative cell number; some inactives read as strong as hits | calls, or highest fold increase where a dose series was run | actives 0.1% (n = 10,000); in the data nearly all actives have a first-pass fold increase above 1.5; a few of its hits are not listed in these tables;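 also: total CFTR protein by anti-CFTR immunofluorescence in fixed cells; first pass at 25 µM or 10 µg/mL by library and series up to twice that; 1 = untreated cells; first-pass hits also needed half or more of the cells alive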
total CFTR fold 25 µM – further read-out of total CFTR, marked with its call; fold increase; measured here: primary screen single dose 25 uM; library dosed in µM
total CFTR fold 10 ug/mL – second read-out of total CFTR, no call of its own (marks repeat the call); fold increase; measured here: primary screen 10 ug/mL
total CFTR viability 25 µM – second read-out of total CFTR, no call of its own (marks repeat the call); viability, %; measured here: primary viability 25 uM; library dosed in µM;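 0% = killed and 100% = untreated cells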
total CFTR viability 10 ug/mL – also measured in total CFTR; calls as there; viability, %; measured here: primary viability 10 ug/mL;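 0% = killed and 100% = untreated cells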
Active calls of the source: *; i = inactive; . = not tested or not shown; & = joins results of further samples.

SMILES | total CFTR | total CFTR fold 10 ug/mL | total CFTR viability 10 ug/mL | others
CN1CCC(Nc2nc(CN3CCOCC3)nc3sc4c(c23)CCCC4)CC1 | i | 0.95 | 94
CCc1cc(C(=O)NC23CC4CC(CC(C4)C2)C3)sc1C | i | 1.1 | 102
Nc1cc(Cl)c(OC(F)F)c(Cl)c1 | i | 0.94 | 73
CC(OC(=O)c1cnn(C)c1)C(=O)N(c1nccs1)C1CCCCC1 (stereo unspecified) | i | 0.88 | 97
CC(NC(=O)C1CC1)c1ccc(Cl)s1 (stereo unspecified) | i | 0.89 | 94
CCN(CC)CCNC(=O)c1ccc(NC(C)=O)cc1 | i | . | . | total CFTR fold 25 µM=1.1;total CFTR viability 25 µM=111
CCCNC(C)(C)COC(=O)c1ccccc1 | i | . | . | total CFTR fold 25 µM=1.1;total CFTR viability 25 µM=112
Cn1c(N)c(C(=O)COC(=O)c2ccccc2C(=O)c2ccccc2)c(=O)n(C)c1=O | i | 1.1 | 92
Cc1cccc(OCc2nnc(SCc3cc(F)cc4c3OC(c3ccccc3)OC4)o2)c1 (stereo unspecified) | i | 0.95 | 104
O=c1cc(CO)nc2sccn12 | i | 1.1 | 91
O=S(=O)(c1ccc(F)cc1Cl)N(Cc1ccc2c(c1)OCO2)C1CCCC1 | i | 1.1 | 91
O=S(=O)(c1ccc(Br)s1)N(c1ccc2c(c1)OC1(CCCC1)O2)S(=O)(=O)c1ccc(Br)s1 | i | 0.95 | 90
Clc1cc(CN2CCN(c3ncccn3)CC2)cc2c1OCCCO2 | i | 0.9 | 87
O=C(O)CCC(NC(=O)C1CC1)C(=O)O (stereo unspecified) | i | 1.1 | 93
CC1CC(Sc2nnc(-c3ccco3)o2)C(=O)O1 (stereo unspecified) | i | 1 | 100
C=CCNc1nc(-c2ccc3c(c2)CCCC(=O)N3)cs1 | i | 0.99 | 81
CCCn1nnnc1CSc1nnc(C2CCS(=O)(=O)C2)n1C (stereo unspecified) | i | 0.95 | 88
O=C(CC12CC3CC(CC(O)(C3)C1)C2)NCc1coc(-c2cccs2)n1 | i | 1.2 | 95
CCOC(=O)C1C(c2ccccc2)NC(=S)N(C)C1(O)C(F)(F)F (stereo unspecified) | i | 1.1 | 117
CC1CC(C)(C)CC2(C1)NC(=O)N(CN1CCc3ccccc3C1)C2=O (stereo unspecified) | i | 1.1 | 91

Sorted by heavy-atom count (lowest first): 6 of the compounds above
SMILES | total CFTR | total CFTR fold 10 ug/mL | total CFTR viability 10 ug/mL | others
Nc1cc(Cl)c(OC(F)F)c(Cl)c1 | i | 0.94 | 73
O=C(O)CCC(NC(=O)C1CC1)C(=O)O (stereo unspecified) | i | 1.1 | 93
CCCNC(C)(C)COC(=O)c1ccccc1 | i | . | . | total CFTR fold 25 µM=1.1;total CFTR viability 25 µM=112
CCN(CC)CCNC(=O)c1ccc(NC(C)=O)cc1 | i | . | . | total CFTR fold 25 µM=1.1;total CFTR viability 25 µM=111
Clc1cc(CN2CCN(c3ncccn3)CC2)cc2c1OCCCO2 | i | 0.9 | 87
CN1CCC(Nc2nc(CN3CCOCC3)nc3sc4c(c23)CCCC4)CC1 | i | 0.95 | 94

The listing continues:
SMILES | total CFTR | total CFTR fold 10 ug/mL | total CFTR viability 10 ug/mL | others
Cn1ccc(NC(=O)C2CC(=O)N(C3CCCC3)C2)n1 (stereo unspecified) | i | 1 | 99
CC1CC(OC(=O)c2ccc(-c3nc4ccccc4s3)s2)C(=O)O1 (stereo unspecified) | i | 1.1 | 101
CC(=O)c1oc2ccccc2c1NC(=O)CSC1=NCCS1 | i | 0.96 | 91
CN(CCS(=O)(=O)N1CCCCC1)S(=O)(=O)c1cccs1 | i | 0.99 | 98
CCN(CC(=O)NC(C)(C)C)C(=O)Cc1c(C)nc2nc(SC)nn2c1C | i | 1.1 | 87
CC1CN(c2ccc([N+](=O)[O-])cn2)CCO1 (stereo unspecified) | i | 1 | 98
Cn1ncc2c(SCC(=O)N3N=C(c4ccco4)CC3c3cccs3)ncnc21 (stereo unspecified) | i | 0.89 | 77
COC(=O)Cc1nc2ccc(C(=O)c3ccc(F)cc3)cc2[nH]1 | i | . | . | total CFTR fold 25 µM=0.73;total CFTR viability 25 µM=78
COc1ccc(C(C2C(=O)CC3(CCCCC3)CC2=O)C2C(=O)CC3(CCCCC3)CC2=O)cc1 (stereo unspecified) | i | 1.2 | 109
O=C(N[C@@H](CO)[C@H](O)c1ccc([N+](=O)[O-])cc1)C(Cl)Cl | i | . | . | total CFTR fold 25 µM=0.89;total CFTR viability 25 µM=90
COCC(C)n1c(C)cc(C(=O)Cn2cnc3sc4c(c3c2=O)CCC(C)C4)c1C (stereo unspecified) | i | 0.94 | 98
CCN=C1NN=C(c2ccc(Br)cc2)CS1 | i | 1 | 92
COc1ccc(OC)c(S(=O)(=O)N(C)Cc2nccn2C(F)F)c1 | i | 1 | 94
COc1cc(C2C3=C(CCCC3=O)Nc3c2c(=O)n(C)c(=O)n3C)ccc1OC(F)F (stereo unspecified) | i | 1.1 | 85
Clc1ccccc1OCCSC1=NC2CCCCC2N1 (stereo unspecified) | i | 1.2 | 97
CCCCn1c(SC(C)C(=O)NC(=O)NCC)nc(C)c1C (stereo unspecified) | i | 0.99 | 88
Cn1cnn(CN2CCCc3cc(S(=O)(=O)N4CCCC4)ccc32)c1=S | i | 0.94 | 101
O=C(NCc1ccc(N2CCCC2=O)cc1)NCc1ccc(N2CCCC2=O)cc1 | i | 1 | 106
NS(=O)(=O)c1ccc(OCc2cc3c(cc2Br)OCCO3)c([N+](=O)[O-])c1 | i | 1.3 | 74
Nc1nc(=O)n([C@@H]2CS[C@H](CO)O2)cc1F | i | . | . | total CFTR fold 25 µM=1.1;total CFTR viability 25 µM=80
CSc1nnc(SCc2csc(CC(=O)N(C)C)n2)s1 | i | 1.1 | 97
CN(CC1COc2ccccc2O1)S(=O)(=O)c1ccc(F)c(F)c1F (stereo unspecified) | i | 0.92 | 94
CCCC(C)(NC(=O)c1csc2c1CCCC2)C(=O)OC (stereo unspecified) | i | 1 | 80
CC(C)C1CCC(C(=O)N[C@@H](Cc2ccccc2)C(=O)O)CC1 (stereo partly specified) | i | . | . | total CFTR fold 25 µM=1.1;total CFTR viability 25 µM=89
CCN(Cc1ccc2c(c1)OCO2)S(=O)(=O)c1ccc2c(c1)OCCO2 | i | 1.3 | 83
CN(Cn1nc2ccccn2c1=O)C1CCCc2ccccc21 (stereo unspecified) | i | 1.1 | 101
COC(=O)c1cn[nH]n1 | i | 0.99 | 98
CC(C)(C)NCC(O)c1ccc(O)c(CO)c1 (stereo unspecified) | i | . | . | total CFTR fold 25 µM=1.1&1&1;total CFTR viability 25 µM=104&89&85
O=c1[nH]c(SCC2CCCCO2)nc2sccc12 (stereo unspecified) | i | 0.9 | 102
CSCc1c(C(=O)OC(C)C(=O)N2CCNC2=O)oc2ccccc12 (stereo unspecified) | i | 1.2 | 94
O=C(Nc1nc(C2CC2)cs1)C1CCN(C(=O)C2CC2)CC1 | i | 1.1 | 107
CCc1cc2c(NCC3CCS(=O)(=O)C3)ncnc2s1 (stereo unspecified) | i | 0.99 | 100
O=c1ccc2cc(S(=O)(=O)N3CCCc4cc(OC(F)(F)F)ccc43)ccc2o1 | i | 1 | 94
COc1cccc(CNCc2ccc3c(c2)OCCO3)c1 | i | 1 | 121
COCCN1C(=O)C(O)=C(C(=O)c2ccc(C)o2)C1c1ccc(O)cc1 (stereo unspecified) | i | 1 | 104
CCC1=C(C(=O)OC)C(c2ccccc2)NC(=S)N1 (stereo unspecified) | i | 0.98 | 88
CC1CN(S(=O)(=O)N2CCN(C(=O)/C=C/c3ccco3)CC2)CC(C)O1 (stereo unspecified) | i | 1.1 | 85
O=S(=O)(c1cccs1)N1CCN(c2nc(CN3CCOCC3)nc3sc4c(c23)CCC4)CC1 | i | 0.96 | 88
Cc1nnc(NCCCC(C)C)c(C#N)c1C | i | 1.2 | 103
C=CCCCCCCCCC(=O)O | i | . | . | total CFTR fold 25 µM=0.96&0.98;total CFTR viability 25 µM=89&103
O=C(/C=C/c1ccc(Cl)s1)NCC(=O)N1CCCC1 | i | 1.2 | 94
S=c1[nH]nc(CSc2ccc(Br)cc2)n1CC1CCCO1 (stereo unspecified) | i | 1.2 | 90
CC1CCN(S(=O)(=O)c2cn(C)c(=O)n(C)c2=O)c2cc(Cl)ccc2S1 (stereo unspecified) | i | 0.91 | 90
c1ccc2c(c1)oc1c(NC3CCN(C4CC4)CC3)ncnc12 | i | 0.96 | 92
CCCCNc1nc(C)nc2sc(C(=O)OC)c(C)c12 | i | 0.84 | 77
CCn1c(=O)c2ccccc2n2c(COc3ccc(Cl)c4c3C(=O)CC4C)nnc12 (stereo unspecified) | i | 1.3 | 79
CC1CCCN(C(C)c2nc3scc(-c4ccco4)c3c(=O)[nH]2)C1 (stereo unspecified) | i | 1 | 88
CCN(CC)CCCN1C(=O)C(=O)/C(=C(\O)c2ccccc2)C1c1ccc(C)cc1 (stereo unspecified) | i | 1.2 | 89
Cc1ccc(OCc2csc(C(C)C)n2)c2c1C(C)CC2=O (stereo unspecified) | i | 0.87 | 82
CC(=O)N[C@@H](CC(C)C)C(=O)O | i | . | . | total CFTR fold 25 µM=1.1;total CFTR viability 25 µM=105
Cn1cnn(CN2CCOC(c3ccc(F)cc3)C2)c1=S (stereo unspecified) | i | 0.99 | 100
COc1ccnc(N2CCN(c3nnnn3-c3ccccc3)CC2)n1 | i | 1 | 94
CC(C)CSc1nc2sc3c(c2c(=O)[nH]1)CCCC3 | i | 1.1 | 86
Cc1ccc(C(=O)c2ccc(CC(=O)O)n2C)cc1 | i | . | . | total CFTR fold 25 µM=0.99&1.1;total CFTR viability 25 µM=82&111
CC(C)C(=O)c1c(C(C)C)nn2ccccc12 | i | . | . | total CFTR fold 25 µM=0.99;total CFTR viability 25 µM=83
O=c1c2ccccc2n2c(SCCO)nnc2n1Cc1ccccc1 | i | 0.95 | 91
Cc1nc2ccccc2nc1N1CCC2(CC1)OCCO2 | i | 1.1 | 89
CC(=O)c1c(SCC(=O)NC(C)C(C)C)nc(=O)[nH]c1C (stereo unspecified) | i | 1 | 122
O=C(NC(Cc1cc(=O)[nH]c2ccccc12)C(=O)O)c1ccc(Cl)cc1 (stereo unspecified) | i | . | . | total CFTR fold 25 µM=1.1&1.1;total CFTR viability 25 µM=79&84
O=C1C2CC=CCC2C(=O)N1c1ccc(C(F)(F)F)cc1 (stereo unspecified) | i | 0.89 | 88

Among those listed so far, these contain a CF3 group.
SMILES | total CFTR | total CFTR fold 10 ug/mL | total CFTR viability 10 ug/mL | others
CCOC(=O)C1C(c2ccccc2)NC(=S)N(C)C1(O)C(F)(F)F (stereo unspecified) | i | 1.1 | 117
O=c1ccc2cc(S(=O)(=O)N3CCCc4cc(OC(F)(F)F)ccc43)ccc2o1 | i | 1 | 94
O=C1C2CC=CCC2C(=O)N1c1ccc(C(F)(F)F)cc1 (stereo unspecified) | i | 0.89 | 88

Quoted at random: 7 records from the list.
SMILES | total CFTR | total CFTR fold 10 ug/mL | total CFTR viability 10 ug/mL | others
CC(=O)N[C@@H](CC(C)C)C(=O)O | i | . | . | total CFTR fold 25 µM=1.1;total CFTR viability 25 µM=105
CC(C)CSc1nc2sc3c(c2c(=O)[nH]1)CCCC3 | i | 1.1 | 86
O=C1C2CC=CCC2C(=O)N1c1ccc(C(F)(F)F)cc1 (stereo unspecified) | i | 0.89 | 88
Cn1cnn(CN2CCOC(c3ccc(F)cc3)C2)c1=S (stereo unspecified) | i | 0.99 | 100
CC(=O)c1c(SCC(=O)NC(C)C(C)C)nc(=O)[nH]c1C (stereo unspecified) | i | 1 | 122
CC1CCN(S(=O)(=O)c2cn(C)c(=O)n(C)c2=O)c2cc(Cl)ccc2S1 (stereo unspecified) | i | 0.91 | 90
CC(C)C(=O)c1c(C(C)C)nn2ccccc12 | i | . | . | total CFTR fold 25 µM=0.99;total CFTR viability 25 µM=83

Additional results:
SMILES | total CFTR | total CFTR fold 10 ug/mL | total CFTR viability 10 ug/mL | others
COC[C@@H](c1ccc(C(F)(F)F)cc1)N1CCN(C2(C)CCN(C(=O)c3c(C)ncnc3C)CC2)C[C@@H]1C | i | . | . | total CFTR fold 25 µM=0.96;total CFTR viability 25 µM=115
NC(=O)c1c(NC(=O)c2cc(F)cc(F)c2)sc2c1CCC2 | i | 0.98 | 86
O=C1CCCc2[nH]c(=O)c(C(=O)NC3CCCC3)cc21 | i | 1 | 91
CCCCCC(C)NS(=O)(=O)c1ccc(S(=O)(=O)C(F)F)cc1 (stereo unspecified) | i | 0.9 | 84
OC(COc1ccc2ccccc2c1)CSc1nnc(Cc2ccccc2)o1 (stereo unspecified) | i | 0.86 | 93
O=C(NC1CC1)N1CCN(S(=O)(=O)c2ccc3c(c2)OCCO3)CC1 | i | 0.84 | 95
Oc1ccc(Cl)cc1Cc1cc(Cl)ccc1O | i | . | . | total CFTR fold 25 µM=0.9;total CFTR viability 25 µM=83
CN(C)CCNS(=O)(=O)c1ccc2c(c1)CCCC2 | i | 1.1 | 107
CN(Cc1ccc(OC(F)(F)F)cc1)S(=O)(=O)c1ccc(S(C)(=O)=O)cc1 | i | 0.91 | 93
Cc1ccc(S(=O)(=O)Nc2ccc(F)cc2F)s1 | i | 0.96 | 91
CCCCc1nc2ccccc2n1CC(O)c1ccc(F)cc1 (stereo unspecified) | i | 0.98 | 89
O=C(c1ccc(Br)s1)N1CCCC1c1cccs1 (stereo unspecified) | i | 0.84 | 82
CN(Cc1cc2c(cc1Br)OCCO2)S(=O)(=O)c1cccs1 | i | 0.93 | 83
Cc1nnc(SCc2csc(CC(=O)N(C)C)n2)s1 | i | 1 | 98

These rows are one share of the data, so the mix of outcomes need not match the whole.
